Screening results as filed in PubChem BioAssay.
TRPML1 blocker – inhibitors of human TRPML1 channel; Q9GZU1; TRPML1-inducible cells, Ca2+ dye fluorescence, FDSS; active compounds read low; inhibition of EC80 agonist-evoked calcium signal; activity change, negative = inhibition, % (test concentration not listed); 390,000 compounds, 0.02% hits; AID 624415; in the data active means activity change below about -50%; inconclusive means about -30% to -50%; inactive means above about -30%;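 note: stimulus is agonist 54-4 at its EC80 concentration; % is set by controls: 0 for no effect and ±100 for the full control effect; compound concentration not given in the record; the text of the record puts the active cut at -80%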
Target sequence (Q9GZU1 whole entry, looked up): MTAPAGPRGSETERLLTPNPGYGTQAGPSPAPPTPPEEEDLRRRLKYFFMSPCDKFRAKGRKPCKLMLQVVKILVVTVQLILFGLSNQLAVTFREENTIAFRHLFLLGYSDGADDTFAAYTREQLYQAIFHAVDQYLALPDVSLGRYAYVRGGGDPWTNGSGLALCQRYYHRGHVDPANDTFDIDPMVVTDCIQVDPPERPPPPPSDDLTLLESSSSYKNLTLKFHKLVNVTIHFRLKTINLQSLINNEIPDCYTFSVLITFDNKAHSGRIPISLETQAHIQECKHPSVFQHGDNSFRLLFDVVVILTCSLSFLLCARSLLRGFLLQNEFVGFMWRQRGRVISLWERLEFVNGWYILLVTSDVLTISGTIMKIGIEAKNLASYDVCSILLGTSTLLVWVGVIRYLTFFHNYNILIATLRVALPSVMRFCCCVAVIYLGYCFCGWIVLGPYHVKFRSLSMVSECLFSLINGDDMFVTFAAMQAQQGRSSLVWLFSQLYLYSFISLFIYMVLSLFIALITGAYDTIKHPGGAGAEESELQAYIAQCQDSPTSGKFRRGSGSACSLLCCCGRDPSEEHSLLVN
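TRPML1-DL cells, Tet-induced overnight (~16 h, 37 °C) at 1,500 cells/well, were loaded with Ca8 no-wash dye plus quencher for 45-90 min at room temperature. Compounds were pinned during FDSS kinetic reading; agonist 54-4 at EC80 (4 uM final) then added.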
TRPML1 ag – human mucolipin-1 channel agonism. 410,000 compounds, 0.12% hits. AID 624414. activation, % (no concentration beside the values). Q9GZU1. TRPML1-expressing cells, Ca2+ dye fluorescence, FDSS; host cell line not named in the record; reference of the full effect not given here; in the data active = activation above about 50%; inconclusive = about 30% to 50%; inactive = below about 30%; note: 0% is about no effect; the text of the record puts the active cut at 80%
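TRPML1-DL cells, Tet-induced overnight (~16 h, 37 degrees C), loaded 45-90 min at room temperature with Ca8 no-wash calcium dye plus quencher. FDSS fluorescence: 10 s baseline, compound pin-transfer, 110 s agonist read, then EC80 54-4 (4uM final) and 110 s antagonist read.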
ClpP mod – qHTS Assay for Activators of ClpP | purified B. subtilis ClpP, FRET peptide cleavage, 20 min | AID 651965, 2013 | 340,000 compounds, 1.9% hits | Potency, µM (top dose mostly 57.5 µM), inactives show at the highest dose activity change, negative = active | ATP-dependent Clp protease proteolytic subunit (Bacillus subtilis (strain 168)), P80244; active = well fitted falling curve with a large enough effect; inconclusive = small, poorly fitted or top-dose-only effect; inactive = no such curve, though single readings can be large or run the other way; note: potency is the fitted concentration of half-maximal effect; the source files actives as falling curves though it sought activators and does not explain the sign; nearly all actives have a fitted effect of over 65% in size; many hits overshoot -100%
Target sequence (P80244 whole entry, looked up): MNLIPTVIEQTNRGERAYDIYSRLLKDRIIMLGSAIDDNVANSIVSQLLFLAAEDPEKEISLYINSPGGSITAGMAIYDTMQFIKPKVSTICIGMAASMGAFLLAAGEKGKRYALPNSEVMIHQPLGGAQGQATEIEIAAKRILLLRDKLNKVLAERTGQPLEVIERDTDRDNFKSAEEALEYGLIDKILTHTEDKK
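FRET quenching reversal measured ClpP activation: 10 microg/mL B. subtilis ClpP at pH 8 with the FRET-FV decapeptide, read at 430 nm after 320 nm excitation. The 20-min minus 0-min signal was scaled between DMSO/no-enzyme wells and ADEP (5.8 microM final).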
PINK1 expr mod – changes PINK1 expression; PINK1 immunofluorescence, high-content cytometry, 24 h; Potency, µM (highest dose often 76.6 µM), inactives show at the highest dose activation (PINK1 increase), hits mostly activators; 410,000 compounds, 0.2% hits; AID 624263; active = well fitted activation curve with a large enough effect; inconclusive = small, poorly fitted or top-dose-only effect; inactive = flat fitted curve, though single readings scatter; cell line not stated here;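 note: potency is the fitted concentration of half-maximal effect; % of control where 0% means no effect; nearly all actives have a fitted effect of over 65% in size; a mitochondrial uncoupler was the plate control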
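Compound titrations (5 concentrations, 24 h) on a stable cell line; DMSO and CCCP controls. Endpoint: fixed-cell PINK1 immunofluorescence with mitochondrial, cell and nuclear markers, scanned by microplate cytometer.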
Sfp inh – blocks B. subtilis Sfp PPTase activity. Q9F4F7. Biochemical Sfp PPTase activity, qHTS. Potency, µM, inactives show max response, negative = inhibition, hits mostly inhibitors. 310,000 compounds, 3.5% hits. AID 1490; active = well fitted inhibition curve with a large enough effect; inconclusive = small, poorly fitted or top-dose-only effect, or another doubt; inactive = no such curve, though single readings can be large or run the other way;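 note: the enzyme is Sfp with the accession as filed and its product quenches rhodamine fluorescence; potency is the fitted concentration of half-maximal effect; 0% = enzyme reaction without inhibitor and -100% = no enzyme wells; top concentration of the series not given in the record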
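Reaction rates are the 30-min fluorescence difference (ex 525, em 598 nm) in wells containing 15 nM Sfp, 5 uM rhodamine-CoA and 12.5 uM BHQ-2-YbbR at pH 7.6 with 10 mM MgCl2.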
Menin-MLL FL inh – inhibitors of human menin-MLL interaction, wild-type MLL peptide; Fluorescence polarization, fluorescein-MLL peptide displacement from menin; FP activity change, % at 61.4 µM; 290,000 tested, under 10 active; inconclusive = falling polarisation curve, or a change in total fluorescence; inactive = total fluorescence flat and polarisation flat or rising; no compound was filed as active; the % refers to the polarisation; negative = inhibition;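 note: % of control where 0% means no effect; inhibitors lower the polarisation; unlabelled MLL peptide was the positive control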
TRPV1 potentiator – human TRPV1 potentiation. Q8NER1. TRPV1-expressing cells, Fluo-8 calcium influx, capsaicin EC20 potentiation; host cell line not named in the record; control for the full effect not named in the record. potentiation, % at 8.33 µM. 320,000 compounds, 0.02% hits. AID 540277; active means potentiation above 80%; inconclusive means 30% to 80%; inactive means below 30%; note: 0% is about no effect
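Cells expressing TRPV1 were dye-loaded with Fluo-8 and read kinetically: 10 s baseline, 3 min after compound (agonist portion), then 2 min after EC20 capsaicin (allosteric enhancer portion). Calcium-bound dye fluorescence at 480/520 nm.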
Active calls of the source: *; ? = inconclusive; . = not tested or not shown; & = joins results of further samples; [ ] = remark or other dose.

SMILES	TRPML1 blocker	TRPML1 ag	ClpP mod	PINK1 expr mod	Sfp inh	Menin-MLL FL inh	TRPV1 potentiator
COc1ccc2c(c1)c1nnc(SCC(=O)Nc3ccccc3F)nc1n2C	1	-0.5	3.9%	6.2%	-5%	-0.1	8
COc1ccc(CCNC(=O)c2cc(-c3cc(C)ccc3O)n[nH]2)cc1OC	0	3.4	4.4%	0.0%	-16%	-2.2	-1
O=C1c2ccccc2C(Nc2ccc(S(=O)(=O)N3CCOCC3)cc2)N1Cc1ccco1 (stereo not given)	15	0.1	-3.2%	2.1%	-5%	1.4	23
CC(=O)Nc1ccc2nc(SCCOc3cc(C)cc(C)c3)sc2c1	-13	3.9	-4.1%	5.7%	.	.	.
O=c1[nH]c2ccsc2c(=O)n1-c1ccc(F)cc1	1	-0.2	-7.1%	5.9%[38.3 µM]	16%	0.0	-6
Cc1csc(NC(=O)Cc2c(F)cccc2Cl)n1	-3	-0.7	.	-0.5%	14%	-1.2	-13
O=C(CCn1c(=O)c2cccn2c2cccnc21)Nc1ccccc1C(F)(F)F	18	0.2	-16%	0.1%	.	.	.
O=C(c1cc2ccccc2oc1=O)N1CCN(C(=O)C2CCCO2)CC1 (stereo not given)	6	-0.4	-5.7%	1.9%[38.3 µM]	16%	0.5	2
COc1cccc2c(=O)n(CC(=O)NCCc3ccccc3)ccc12	.	.	-21%	1.2%	0%	-0.8	3
COc1ccc(C(=O)NNC(=S)NC(=O)C(C)(C)C)cc1	32	51*	.	-0.8%	-3%	-2.4	-14
O=C(Nc1ccc(N2CCOCC2)c(F)c1)c1ccncc1	1	0.1	-0.2%	0.9%	2%	0.4	-19
CC1CN(C(=O)COC(=O)[C@@H]2CC(O)CN2S(=O)(=O)c2ccc3c(c2)OCCO3)CC(C)O1 (stereo not given in full)	33	-0.6	1.0%	-0.8%	14%	6.6	8
O=C(NCc1ccc(Cl)nc1)c1csc([C@@H]2O[C@H](CO)[C@H](O)[C@H](O)[C@H]2O)n1	.	-0.2	-2.0%	-0.2%	.	.	.
COc1ccc(C(CNC(=O)Cc2c(F)cccc2Cl)N2CCCCC2)cc1 (stereo not given)	10	-0.4	.	-0.2%	8%	-0.9	-2
COc1ccc(-c2onc(C)c2-c2ccccc2)c(O)c1	6	0.5	-12%	1.2%	6%	4.3	2
Cc1onc(-c2ccccc2)c1C(=O)N/N=C/c1cccc(O)c1	-6	2.3	-1.2%	2.6%	15%	.	-10
CC(=O)c1ccc(OCc2cc(C(=O)N3CCCCC3c3cccnc3)no2)cc1 (stereo not given)	-5	-0.4	-0.3%	0.5%	-2%	.	1
COc1ccc(CCC(=O)OCC(=O)Nc2c(C)n(C)n(-c3ccccc3)c2=O)cc1	-9	-0.5	-0.1%	1.8%	.	.	2
O=C(COC(=O)c1n[nH]c2ccccc12)c1cc(F)ccc1F	-14	0.0	.	2.8%	-1%	5.4	3
CCOC(=O)COc1cccc2c(=O)n(CC(=O)N3CCCc4ccccc43)ccc12	-8	-0.2	?	0.1%	6%	1.7	10
COc1ccc(Cl)cc1NC(=O)Cc1coc2c(C)c(C)ccc12	-8	1.0	-5.9%	-1.2%	.	.	.
COc1ccc2[nH]c3ccc(OC)cc3c2c1	1	0.6	?	-2.3%	8%	-0.6	1
CN(C)S(=O)(=O)c1cccc(C(=O)OCC(=O)N2CCCC2=O)c1	1	0.2	-1.0%	0.1%	13%	.	4
O=C(NCc1cccs1)c1nn(-c2ccccc2)nc1CO	2	2.8	2.7%	-0.8%	.	.	.
Cc1cccc(CS(=O)(=O)CC2Nc3ccc(C(=O)NCc4ccccc4Cl)cc3NC2=O)c1 (stereo not given)	18	-0.4	4.8%	4.0%	.	.	.
N#CC(=C1NC(=O)c2ccccc21)c1nc2ccccc2n1CCO	-4	0.7	0.8%	3.2%	.	.	.
Cc1ccc(C23CC4CC(CC(NC(=O)NN)(C4)C2)C3)cc1	14	1.7	0.8%	2.3%	11%	-0.9	-1
COC(=O)c1ccc(NC(=O)CSc2nncn2-c2cccnc2)cc1	-6	-0.6	.	-2.1%	16%	-0.1	?
O=C(c1cc[n+]([O-])cc1)N1CCCC(N2CCN(c3cccc(C(F)(F)F)c3)CC2)C1 (stereo not given)	-9	0.6	-3.8%	-1.5%	11%	.	15
COc1cccc(C(O)c2nc3ccccc3n2C)c1 (stereo not given)	5	-0.6	.	0.8%	16%	-0.7	12
COc1ccc(Nc2nc3nonc3nc2N2CCCCC2)cc1	7	1.6	.	0.8%	8%	7.9	1
CC(C)CCN(C(=O)c1ccc(N2CCCC2=O)cc1)c1c(N)n(Cc2ccccc2)c(=O)[nH]c1=O	-3	-0.5	1.8%	0.4%	.	.	0
Cc1ccc(NC(=O)C(C)N2CCCC2)cc1Cl (stereo not given)	5	-0.5	.	1.3%	-7%	0.2	4
CCOC(=O)c1c(C)[nH]c(C)c1S(=O)(=O)NCC(=O)Nc1cc(Cl)ccc1OC	51	-0.8	0.1%	0.8%	.	.	.
O=C(NCc1ccccc1F)C1CCN(Cc2cc3ccccc3n2Cc2cccc(Cl)c2)CC1	13	4.0	-11%	1.0%	.	.	.
O=C(COC(=O)c1ccco1)c1ccc(F)cc1	0	-1.7	1.2%	1.5%	6%	-1.5	7
COc1cc2nc(Cl)nc(NCCO)c2cc1OC	2	1.0	-18%	1.9%	12%	2.7	?
CCn1c2ccccc2c2cc(/C=C(/C#N)C(N)=S)ccc21	1	0.9	2.2%	-1.7%	.	.	.
CCOC(=O)CSc1nc2sc3c(c2c(=O)n1-c1ccccc1)CC(C(C)C)OC3 (stereo not given)	-27	0.4	2.0%	0.8%	.	.	.
CN(Cc1ccc(F)cc1)S(=O)(=O)c1nnc(NC(=O)c2ccccc2)s1	3&7	0.4&2.1	-11%	2.2%&-1.6%	17%	-1.5	12
CC1(C)CN(Cc2cccnc2)C(=O)[C@H]1CC(=O)Nc1ccc(Br)cc1	-3	0.9	0.7%	-2.2%	.	.	.
O=C(CCN1CCOCC1)c1ccc(Br)cc1	-2	0.2	-8.5%	4.8%	-29%	-0.4	1
O=C(CSc1ncnc2c1cnn2-c1ccc(Cl)cc1)NCc1ccc2c(c1)OCO2	4	1.1	-6.5%	-2.1%	3%	-2.2	?
O=C(Nc1ccccn1)c1cc(-c2ccc(Cl)s2)nc2ccccc12	14	0.8	4.4%	3.2%	.	.	-13
O=c1c2ccccc2nc2c3ccccc3c(Cl)nn12	.	.	.	.	2%	0.8	-6
CCN(CC)C(=O)Cn1c(SCCOc2ccc(Cl)cc2)nc2ccccc21	41	1.1	0.6%	-0.2%	.	.	.
CSc1ccc(S(=O)(=O)Nc2c(C)n(C)n(-c3ccccc3)c2=O)cc1	-3	0.0	0.7%	-1.0%	2%	0.2	-1
O=[N+]([O-])c1ccccc1CNC(Cc1ccccc1)c1ccccc1 (stereo not given)	-2	0.5	0.9%	.	-18%	2.3	15
Cc1ccc(C)c(N2CCN(C(=O)c3cc(S(=O)(=O)N4CCCCCC4)cn3C)CC2)c1	2	0.2	-1.1%	0.0%	.	.	.
O=C(CSc1nnc2c(n1)[nH]c1ccc(F)cc12)NCc1ccc(F)cc1	9	0.7	.	4.6%	1%	9.0	9
O=[N+]([O-])c1ccc(N/N=C2\CC3CC=CC23)c([N+](=O)[O-])c1 (stereo not given)	0	1.9	.	11%	?	-3.5	-5
CC(C)c1ccccc1NC(=S)NCc1nc2ccccc2[nH]1	-22	2.0	.	-1.1%	12%	-1.5	3
CCOC(=O)[C@H]1[C@H]2COc3ccc(Br)cc3[C@@H]2N2C(=O)N(c3ccccc3)C(=O)[C@@]12C	1	-0.4	-0.1%	1.5%	.	.	.
COc1ccc(OC)c(-n2c(SCC(=O)NCc3ccco3)nnc2-c2c[nH]c3ccccc23)c1	32	0.1	0.2%	0.1%	-4%	3.3	.
COc1cccc2cc(C(=O)N3CCc4ccccc4C3)c(=O)oc12	47	-0.1	-2.8%	-0.8%	-1%	-0.3	11
COc1cc2nc(Nc3ccc(C)c(C)c3)nc(N)c2cc1OC	6	-0.3	?	-1.3%&3.6%	?	-2.4	-10
COc1cc(S(=O)(=O)NCCc2ccc3c(c2)OCO3)ccc1-n1cnnn1	5	0.2	-3.6%	1.2%[38.3 µM]	3%	-0.8	7
Cc1cc(SCC(=O)OCC(=O)NCC2CCCO2)c(C)cc1Br (stereo not given)	-6	1.8	0.8%	-0.2%	20%	0.9	-11
O=C(Cc1ccc(Br)c2ccccc12)N/N=C/c1ccccn1	21	1.0	.	1.3%	-4%	-3.0	2
N#Cc1cccc(-c2nc3cnc(Nc4ccccc4)nc3n(C[C@H]3CCCO3)c2=O)c1	.	.	.	1.2%	23%	?	.
(further entries)
SMILES	TRPML1 blocker	TRPML1 ag	ClpP mod	PINK1 expr mod	Sfp inh	Menin-MLL FL inh	TRPV1 potentiator
COc1cc(/C=N/NC(=O)c2sc(N)c(C#N)c2C)cc(Br)c1O	4	-1.9	-3.3%	3.0%	5%	8.9	3
Cc1cc(C)cc(OCC(=O)O/N=C(\N)c2cccnc2)c1	4	5.6	.	1.2%	-6%	0.8	4
c1cnc(SCCOc2ccc3c(c2)CCC3)nc1	19	0.4	-1.2%	1.2%	6%	2.6	-6
CC(Sc1ncnc2ccccc12)C(=O)Nc1ccc2c(c1)OCCO2 (stereo not given)	-7	4.7	-2.7%	-2.5%	-16%	-0.2	3
COc1cccc(C2(O)CCN(CC(=O)NCC3CC3)CC2)c1	23	-0.4	0.5%	0.3%	19%	3.3	-16
Cn1c(=O)c2nc3ccccc3nc2n(C)c1=O	9	-0.4	-30%	1.7%	-14%	-16	-1
CN1CCN(NC(=O)c2cccc(F)c2)CC1	22	0.8	-3.6%	3.1%	15%	-2.1	9
CC(=O)Nc1ccc(-c2ccnc3c2CC(C(=O)NC(C)C)O3)cc1 (stereo not given)	.	-0.3	5.1%	4.1%	.	.	.

At a glance, some entries already given:
SMILES	TRPML1 blocker	TRPML1 ag	ClpP mod	PINK1 expr mod	Sfp inh	Menin-MLL FL inh	TRPV1 potentiator
COc1cc(/C=N/NC(=O)c2sc(N)c(C#N)c2C)cc(Br)c1O	4	-1.9	-3.3%	3.0%	5%	8.9	3
Cc1cc(C)cc(OCC(=O)O/N=C(\N)c2cccnc2)c1	4	5.6	.	1.2%	-6%	0.8	4
